# Screens deposited in PubChem BioAssay by National Center for Advancing Translational Sciences (NCATS).
# Rango dissoc inh – inhibitors of RanGTP-induced Rango-importin beta complex dissociation; O95149+P62826; Biochemical FRET Rango-importin beta, RanGTP-induced dissociation; Potency, µM (highest dose often 46.1 µM), for inactives: at the highest dose activity change, negative = inhibition; 340,000 compounds, 0.071% hits; active means falling FRET ratio curve, often poorly fitted, with flat reads before Ran was added; inconclusive means other falling curves, or compound fluorescence or quenching; inactive means flat or rising ratio curve;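 note: potency is the fitted concentration of half-maximal effect; % of control where 0% means no effect; nearly all actives have a fitted effect of over 45% in size; -100% = wells without RanGTP and RCC1; the record marks most hits as doubtful in a second field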
#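 Rango (0.1 uM)–importin beta (0.25 uM) complex; RanGTP-RCC1 trigger; 45 min RT; CFP/YFP FRET read.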
# miR-21 FLuc – raises the signal of a miR-21 reporter | HeLa miR-21 FLuc reporter, luciferase, 48 h | Potency, µM (highest dose often 38.3 µM), without a hit: at the highest dose reporter change, positive = more light | 340,000 tested, under 10 active; active = well fitted rising curve with a large enough effect; inconclusive = small, poorly fitted or top-dose-only effect; inactive = no such curve, though single readings can be large or run the other way;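 note: % of control where 0% means no effect; miR-21 action dims this reporter so a rising signal means less miR-21 action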
#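 HeLa miR-21-FLuc reporter line, endogenous miR-21; 2000 cells/well in DMEM/10% FBS; compound titration up to ~40uM final, 48 h, 37 degree Celsius; luciferase detection reagent, 15 min lysis, CCD luminescence.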
# GLA inh pH 4.5 – inhibitors of human alpha-galactosidase A at pH 4.5. AID 1467. activity change, negative = inhibition, % at 105 µM. purified enzyme, 4-MU-alpha-Gal fluorescence, pH 4.5. 230,000 tested, under 10 active; inconclusive = small, poorly fitted or top-dose-only inhibition, or a rising curve; inactive = flat fitted curve, though single readings scatter; no compound was filed as active;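 note: 0% = full activity with enzyme and -100% = basal without enzyme; dose as in the result columns while the protocol names 77 µM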
# Rango complex inh – Rango-importin beta binding inhibition | Potency, µM (highest dose often 92.2 µM), for the others: top-dose inhibition of complex formation | 340,000 compounds, 0.031% hits | Rango CFP/YFP FRET sensor + importin beta, 45 min | Q14974 | AID 540263; active = rising FRET ratio curve, often small or poorly fitted; inconclusive = mostly compound fluorescence or quenching in the first reads; inactive = flat curves in all reads;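 note: potency is the fitted concentration of half-maximal effect; 0% = DMSO wells and 100% = buffer wells lacking importin beta; nearly all actives have a fitted effect of over 15% in size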
# Target sequence (Q14974 whole entry, looked up): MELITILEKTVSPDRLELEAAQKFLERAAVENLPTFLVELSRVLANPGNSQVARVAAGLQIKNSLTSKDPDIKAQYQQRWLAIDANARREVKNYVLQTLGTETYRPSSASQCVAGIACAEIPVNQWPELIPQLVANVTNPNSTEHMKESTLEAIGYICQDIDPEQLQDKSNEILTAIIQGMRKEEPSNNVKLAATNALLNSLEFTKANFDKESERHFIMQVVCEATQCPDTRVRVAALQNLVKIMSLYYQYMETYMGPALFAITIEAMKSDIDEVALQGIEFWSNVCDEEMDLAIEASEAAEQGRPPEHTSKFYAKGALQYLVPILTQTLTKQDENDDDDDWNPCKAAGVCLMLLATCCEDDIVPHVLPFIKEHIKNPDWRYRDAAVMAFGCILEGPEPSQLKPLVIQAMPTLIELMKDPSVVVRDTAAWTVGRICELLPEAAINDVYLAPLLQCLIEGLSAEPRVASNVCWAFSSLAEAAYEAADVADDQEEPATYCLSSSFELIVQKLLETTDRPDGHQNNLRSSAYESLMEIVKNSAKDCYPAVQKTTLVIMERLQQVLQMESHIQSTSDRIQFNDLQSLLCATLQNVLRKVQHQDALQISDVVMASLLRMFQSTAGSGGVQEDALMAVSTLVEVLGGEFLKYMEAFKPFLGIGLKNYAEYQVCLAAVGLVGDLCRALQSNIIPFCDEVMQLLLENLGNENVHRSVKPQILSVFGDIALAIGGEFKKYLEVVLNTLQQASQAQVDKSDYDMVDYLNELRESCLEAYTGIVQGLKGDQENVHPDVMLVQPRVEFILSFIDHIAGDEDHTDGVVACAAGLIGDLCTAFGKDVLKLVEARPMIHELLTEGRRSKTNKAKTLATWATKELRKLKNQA
#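 Inhibition scored from the CFP 486 nm/YFP 530 nm FRET ratio 45 min after adding 0.125 microM importin beta to 50 nM Rango biosensor preincubated 5 min with compound (room temperature, PBS with DTT, Tween-20, BSA). No-importin wells as positive control.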
# Active calls of the source: *; ? = inconclusive; nt = no result given; & = joins results of further samples.
# Fields – miR-21 FLuc, Rango complex inh, Rango dissoc inh, GLA inh pH 4.5
Cc1cccc(C(=O)NCCNC(=O)c2ccccn2)c1
  3%, 0.4%, -2%, nt
CCCCSc1nc(O)c(C2OC(=O)c3c2ccc(OC)c3OC)c(=O)n1-c1ccccc1 (stereo not given)
  1%, -0.1%, -9%, -8
O=C(CN1C(=O)C2C3C=CC(C3)C2C1=O)N1CC=C(c2ccccc2)CC1 (stereo not given)
  -9%, 5.1%, 4%, 6
Cc1cc(C(=O)C(=O)N(C)C)c(C)n1-c1ccc([N+](=O)[O-])cc1
  -3%, -1.0%, 14%, -2
Cc1ccc(S(=O)(=O)Nc2ccccc2C(=O)N2CCN(C)CC2)cc1
  0%, -1.5%, 2%, nt
Cc1ccc(NC(=O)Nc2cccs2)c(Cl)c1
  -11%, ?, -15%, 2
CCCN1C(=O)C2(OCCO2)c2cc(Cl)ccc21
  -4%, 2.9%, -2%, nt
N/C(=N\NC(=O)c1ccccc1)c1cc2ccccc2oc1=O
  2%, ?, 0%, -7
CCO[C@H]1OC(C(=O)N2CCN(Cc3ccc4c(c3)OCO4)CC2)=C[C@@H](c2ccc(Br)cc2)[C@@H]1CCCO
  6%, 4.7%, -19%, -9
COc1ccc(CCNC2CCc3ccccc3C2)cc1 (stereo not given)
  -10%, 4.7%, -8%, nt
Cc1ccccc1NC(=O)COc1coc(CN2CCCc3ccccc32)cc1=O
  nt, 1.7%, -23%, nt
N=c1cc(C2(O)CCCCC2)n2c(nc3ccccc32)s1
  -61%, -7.9%, 3%, 4
COc1ccc(CN2C(=O)CC(Cc3ccc(C)cc3)C2=O)cc1OC (stereo not given)
  -5%, -0.1%, -8%, 10
CCOC(=O)c1sc(NC(=O)c2ccc(S(=O)(=O)N3CCCCCC3)cc2)nc1-c1ccccc1
  -2%, -0.1%, -16%, -10
O=C(COC(=O)CN1C(=O)c2ccccc2C1=O)Nc1ccccc1[N+](=O)[O-]
  nt, -0.8%, 30%, nt
Cc1ccccc1NC(=O)NCc1ccco1
  -7%, -1.5%, 24%, 10
O=C(CSc1nnc(SCc2ccccc2)s1)N/N=C/c1ccc(Cl)cc1Cl
  -5%, 1.2%, 14%, 6
Oc1ccccc1C=NC1CCCCC1N=Cc1ccccc1O (stereo not given)
  -5%, -1.9%, 1%, 3
O=C1NCCCC1C(=O)N/N=C/c1ccccc1[N+](=O)[O-] (stereo not given)
  -8%, -0.4%, 0%, 0
COC(=O)c1cc(S(=O)(=O)NCC2CCN(CCc3cccs3)CC2)c[nH]1
  -4%, 0.5%, ?, nt
CNc1oc(-c2ccccc2Cl)nc1P(=O)(c1ccccc1)c1ccccc1
  -20%, 2.6%, 1%, 0
CCN(CC)C(=O)CCc1nc2sc3c(c2c(=O)[nH]1)CCCC3
  -6%, 6.6%, ?, 3
Cc1ccc2ccc3ccc(C)nc3c2n1
  21%, -0.4%, 1%, nt
O=C(Nc1cccc(Cl)c1)N1CCN(C/C=C/c2ccccc2)CC1
  3%, -0.4%, 6%, -12
C=CCn1c(SCC(=O)Nc2ccc(C(=O)O)cc2)nnc1-c1cccnc1
  1%, 2.0%, -15%, 4
COCCNC(=O)c1oc2ccc3c(c2c1C)C(O)CC(C)(C)O3 (stereo not given)
  -10%, -3.2%, 14%, nt
CCOC(=O)c1sc(/N=C/Nc2nc(C)c(C(=O)OCC)s2)nc1C
  -1%, -5.4%, 4%, -19
Cc1ccc(-n2c(C)nnc2SCC(=O)N(C)c2c(N)n(Cc3ccccc3)c(=O)[nH]c2=O)cc1
  nt, 1.4%, -7%, nt
O=C(Nc1ccc2c(c1)C(=O)NC2=O)c1ccccc1Cl
  -2%, 0.6%, -5%, nt
CC(=O)NC(Cc1ccc(O)cc1)C(=O)NN (stereo not given)
  -4%, 2.0%, -2%, 9

# A second format for 3 compounds above:
mol | miR-21 FLuc | Rango complex inh | Rango dissoc inh | GLA inh pH 4.5
COc1ccc(CN2C(=O)CC(Cc3ccc(C)cc3)C2=O)cc1OC (stereo not given) | -5% | -0.1% | -8% | 10
Cc1ccccc1NC(=O)NCc1ccco1 | -7% | -1.5% | 24% | 10
CCO[C@H]1OC(C(=O)N2CCN(Cc3ccc4c(c3)OCO4)CC2)=C[C@@H](c2ccc(Br)cc2)[C@@H]1CCCO | 6% | 4.7% | -19% | -9

# More structures follow.
# Fields – miR-21 FLuc, Rango complex inh, Rango dissoc inh, GLA inh pH 4.5
C#CCOCCOCCOCCNc1nc(N2CCN(C(=O)[C@H]([C@@H](C)CC)n3cc([C@@H](N)CO)nn3)CC2)nc(N2CCN(C(=O)[C@H]([C@@H](C)CC)n3cc([C@@H](N)Cc4ccc(O)cc4)nn3)CC2)n1
  -2%, 3.7%, ?, -10
O=C1Nc2ccccc2OCc2c1cccc2[N+](=O)[O-]
  -7%, 0.2%, 10%, -19
CC1CN(C(=O)c2ccc(-c3ccccc3Cl)o2)CC(C)O1 (stereo not given)
  nt, 4.9%, 13%, nt
CC1=C(C(=O)N2CCOCC2)C(c2ccc(Br)cc2)NC(=S)N1c1ccccc1 (stereo not given)
  0%, -2.1%, 9%, 3
CCOc1ccc(C(=O)N2CCN(c3ccccn3)CC2)cc1OCC
  -3%, 1.8%, -11%, nt
CC(=O)N1CCc2c(sc(NC(=O)c3cccc(N4C(=O)CCC4=O)c3)c2C(N)=O)C1
  5%, ?, ?, nt
CCCCCCCC1(C)NC(=O)N(CC(=O)Nc2cc(C)on2)C1=O (stereo not given)
  4%, -0.7%, -1%, 4
COc1ccc(-c2c(C(F)(F)F)nn(C)c2NC(=O)c2cccnc2)cc1
  1%, 0.4%, 5%, 4
COc1ccc(C=C(c2ccc(OC)cc2)c2ccc(OC)cc2)cc1
  -3%, -1.3%, 4%, -3
N/C(=N\C(=S)Nc1ccccc1)c1ccccc1
  -67%, -3.6%, 22%, nt
C#CC(CC)(CC)NC(=O)Nc1ccccc1C(=O)OC
  7%, 5.3%, -6%, 3
COc1ccc(C2C=C(C)Nc3ncnn32)cc1 (stereo not given)
  nt, -2.3%, -11%, nt
CCCCN(CC)CCNC(=O)C1CCN(S(=O)(=O)c2cccc3nsnc23)CC1
  -1%&-3%, -2.4%, 0%, nt
COc1ccc2nc(COC(=O)c3ccco3)c(C(C)=O)[n+]([O-])c2c1
  -3%, 3.4%, 3%, 0
Nc1nc(CN2CCc3ccccc3C2)nc(Nc2ccccc2)n1
  -7%, ?, -7%, -6
CCOC(=O)C1CCCN(C(=O)CCc2nc3sc4c(c3c(=O)[nH]2)CCCC4)C1 (stereo not given)
  nt, -2.8%, 0%, nt
COc1ccc(CCN2CC(C(=O)OCC(=O)N(C)Cc3ccccc3)CC2=O)cc1OC (stereo not given)
  nt, -0.8%, -13%, nt
Cc1nnc(SCC(=O)N2CCc3ccccc32)s1
  -29%, -0.5%, -2%, -1
CCCC(NCC(=O)Nc1cc(S(=O)(=O)N2CCOCC2)ccc1OC)c1ccccc1 (stereo not given)
  nt, -2.7%, -7%, nt
COc1ccccc1CNc1nc2nc(C)c(Cl)c(=O)n2[nH]1
  -1%, 3.1%, -3%, 8
CC(C)(C)C(=O)CSc1nc2ncc(Br)cc2[nH]1
  -25%, -2.2%, -15%, 8
Cc1nc(Cc2nnc(SCC(=O)N3CCN(c4ccccc4)CC3)o2)cs1
  nt, -0.9%, 31%, nt
CCCCCNc1nc(-c2ccccc2)nc(-n2ccnc2)n1
  0%, 0.0%, 8%, 1
COc1ccc2cc(C(c3nnnn3C3CCCC3)N3CCCCCC3)c3nnnn3c2c1 (stereo not given)
  -5%, 9.7%, 20%, 1
Cc1ccc(NP(=O)(Nc2ccc(C)cc2)Nc2ccc(C)cc2)cc1
  7%, 4.8%, 5%, -7
Cc1ccc(-n2c(C)cc(C(=O)CN3CCOCC3)c2C)cc1
  -33%, -0.9%, 2%, 2
CCOC(=O)C1CCN(C(=O)c2ccccc2CCc2ccccc2)CC1
  1%, -1.0%, -7%, nt
O=C(CCC(=O)Nc1ccccc1)NNS(=O)(=O)c1ccccc1[N+](=O)[O-]
  2%, 2.0%, -10%, -3
Cc1ccc(NC(=O)CSc2nc(O)cc(=O)n2C)cc1
  0%, 3.9%, -21%, 3
CCOc1ccc(OCc2ccc(C(=O)N3CCCC(C)C3)cc2)cc1 (stereo not given)
  -20%, -3.7%, 7%, -10

# (next part)
# Fields – miR-21 FLuc, Rango complex inh, Rango dissoc inh, GLA inh pH 4.5
O=C(CSC1=NC(=O)C(Cc2ccccc2)C(=O)N1)Nc1ncccn1 (stereo not given)
  -1%, nt, nt, 1
Cc1cc(/C=C2/NC(=O)NC2=O)c(C)n1-c1ccc(N2CCOCC2)cc1
  -10%, 0.0%, -8%, 0
Cn1cnnc1SCC(=O)OCN1C(=O)c2ccccc2C1=O
  -4%, -1.0%, -4%, -2
COc1ccccc1NC(=O)COC(=O)c1ccc2c(c1)OCCO2
  nt, -0.2%, -12%, nt
Cc1ccc(CN2CC(C(=O)N3CC(C)CC(C)C3)CC2=O)cc1 (stereo not given)
  nt, -3.3%, -7%, nt
O=C(CSc1nnc(C2CC2)n1CC1CCCO1)Nc1ccccc1Cl (stereo not given)
  -1%, -0.3%, -11%, nt
Cc1n[nH]c(C)c1Cc1ccc(C(=O)O)cc1
  -6%, -0.1%, -10%, 8
Cc1nn(-c2ccc(C(=O)OC(C)C)cc2)c(C)c1[N+](=O)[O-]
  -16%, 2.6%, -4%, -5
Cc1nc2ccc(NC(=O)c3ccccc3)cc2s1
  -65%, 0.3%, 3%, -1
COc1ccccc1N1CCN(S(=O)(=O)CC23CCC(CC2=O)C3(C)C)CC1 (stereo not given)
  -3%, 2.1%, 12%, -3
CCc1ccc(Cn2ncc3c(C(=O)O)cc(C)nc32)cc1
  nt, 5.7%, -7%, nt
Cn1cccc1C(=O)OCC(=O)c1ccc(Br)s1
  nt, -1.4%, -3%, nt
CCC(CC)NC(=O)CO/N=C/c1ccc(Cl)cc1Cl
  0%, 1.2%, -7%, 1
O=C(c1ccc2nccnc2c1)N1CCCC(Nc2ccc(F)c(F)c2)C1 (stereo not given)
  -4%, 0.1%, 0%, nt
CCC1CCc2sc(C(=O)N(C)CC(=O)Nc3ccc(N4CCOCC4)cc3)cc2C1 (stereo not given)
  nt, -1.6%, 13%, nt
CCOC(=O)C1=C(c2ccccc2)N2CCS(=O)(=O)N=C2S1
  -23%, -2.5%, -13%, 10
Cc1ccc(NC(=O)CSc2ccccn2)cc1S(=O)(=O)N1CCOCC1
  -2%, 1.1%, -6%, -6
COc1ccc(C)cc1-n1nnnc1SCc1cn2ccsc2n1
  -20%, 0.5%, 31%, 2
COc1ccc(Nc2nc(N)c3ccccc3n2)c(OC)c1
  -46%, -3.9%, ?, nt
COc1ccc(/C=C2\SC(=S)N(CCC(=O)Nc3ccc(O)cc3)C2=O)cc1
  1%, -0.1%, -2%, nt
Cc1nc2ccccn2c1C(=O)NC1CCCC1
  -2%, -2.5%, -4%, -2
COc1ccc(C)cc1Cn1nnc2ccccc21
  nt, -5.9%, 1%, nt
N#CC(C(=O)NC1CCCCC1)c1nc2ccccc2nc1N1CCN(c2ccc(F)cc2)CC1 (stereo not given)
  -1%, nt, nt, -3
O=C(Cc1ccccc1)NN1C(=O)c2ccccc2C1=O
  1%, -3.7%, 2%, -4
O=C(Nc1ccc(F)cc1)c1c(Cl)nc2ccccn12
  -60%, 1.2%, -6%, 10
N#CCCN1CCN(Cc2ccccc2)CCC1=O
  0%, -2.4%, -1%, nt
COCCNC(=O)COc1ccccc1Cl
  -14%, -0.7%, 3%, -13
COc1cccc(N2CCN(c3ccc4nnc(CCC(=O)N5CCN(C)CC5)n4n3)CC2)c1
  1%, 1.6%, 0%, nt
COc1cc(-c2cc(OC)c(O)c(OC)c2)cc(OC)c1O
  nt, -2.2%, -3%, nt
COc1cc(Br)c(CNc2cc(C)ccc2C)cc1OC
  16%, -0.9%, ?, nt
Cc1ccc(CNC(=O)c2cccc3c2C(=O)c2ccc(N4CCCCC4)cc2S3(=O)=O)cc1
  nt, ?, ?, nt

# An excerpt. The share of hits here may be higher or lower than overall.
